TRPML1 ag: qHTS for Agonists of the Human Mucolipin Transient Receptor Potential 1 (TRPML1). Mucolipin-1 (Homo sapiens), Q9GZU1. TRPML1-expressing cells, Ca2+ dye fluorescence, FDSS; host cell line not named in the record; reference of the full effect not given here. activation, % (concentration not given with the values). hit rate 0.12% among 410,000. AID 624414, 2012; in the data active = activation above about 50%; inconclusive = about 30% to 50%; inactive = below about 30%; also: 0% is about no effect; the text of the record puts the active cut at 80%
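Tet-induced TRPML1-DL cells, 1,500 per well, cultured overnight, were loaded with a no-wash Ca2+ dye for 45–90 min. Calcium fluorescence was recorded on the FDSS for 110 s after compound addition, before the EC80 agonist (4 uM 54-4) was added.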
Sfp PPTase inh: qHTS Assay for Inhibitors of Bacillus subtilis Sfp phosphopantetheinyl transferase (PPTase); Biochemical Sfp PPTase activity, qHTS; hit rate 3.5% among 310,000; 4'-phosphopantetheinyl transferase ffp (Bacillus subtilis), Q9F4F7; Potency, µM, inactives show max response, negative = inhibition, hits mostly inhibitors; active = well fitted inhibition curve with a large enough effect; inconclusive = small, poorly fitted or top-dose-only effect, or another doubt; inactive = no such curve, though single readings can be large or run the other way;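 also: the enzyme is Sfp with the accession as filed and its product quenches rhodamine fluorescence; potency is read from the fitted curve at half-maximal effect; 0% = enzyme reaction without inhibitor and -100% = no enzyme wells; top concentration of the series not given in the record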
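Fluorescence-quenching assay: 15 nM Sfp-PPTase preincubated 15 min at room temperature with compound, then 5 uM rhodamine-CoA and 12.5 uM BHQ-2-labelled YbbR peptide added. Fluorescence (ex 525/em 598 nm) read at start and after 30 min; difference gives rate.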
Menin MLL FP FL: qHTS Assay for Inhibitors Targeting the Menin-MLL Interaction in MLL Related Leukemias: Competition With Fluorescein Labeled MLL-derived Peptide. 290,000 tested, under 10 active. AID 1766, 2009. Fluorescence polarization, fluorescein-MLL peptide displacement from menin. FP activity change, % at 61.4 µM; inconclusive = falling polarisation curve, or a change in total fluorescence; inactive = total fluorescence flat and polarisation flat or rising; no compound was filed as active; the % refers to the polarisation; negative = inhibition;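 also: % of control where 0% means no effect; inhibitors lower the polarisation; unlabelled MLL peptide was the positive control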
TRPML1 blocker: qHTS for Inhibitors of the Human Mucolipin Transient Receptor Potential 1 (TRPML1); Mucolipin-1 (Homo sapiens), Q9GZU1; TRPML1-inducible cells, Ca2+ dye fluorescence, FDSS; stronger effect = lower value; inhibition of EC80 agonist-evoked calcium signal; activity change, negative = inhibition, % (test concentration not listed); hit rate 0.02% among 390,000; in the data active means activity change below about -50%; inconclusive means about -30% to -50%; inactive means above about -30%;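 also: stimulus is agonist 54-4 at its EC80 concentration; % is scaled to controls: 0 for no effect and ±100 for the full control effect; compound concentration not given in the record; the text of the record puts the active cut at -80%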
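Calcium fluorescence in TRPML1-DL cells induced overnight with Tet: a 110 s read after compound pin addition, then a 110 s antagonist read after challenge with 54-4 at 4 uM final (EC80).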
TRPV1 potentiator: HTS Assay for Compounds that Act as Potentiators of the Vanilloid Receptor 1. TRPV1-expressing cells, Fluo-8 calcium influx, capsaicin EC20 potentiation; host cell line not named in the record; control for the full effect not named in the record. potentiation, % at 8.33 µM. hit rate 0.02% among 320,000. Transient receptor potential cation channel subfamily V member 1 (Homo sapiens), Q8NER1; active means potentiation above 80%; inconclusive means 30% to 80%; inactive means below 30%; also: 0% is about no effect
Target sequence (Q8NER1 whole entry, looked up): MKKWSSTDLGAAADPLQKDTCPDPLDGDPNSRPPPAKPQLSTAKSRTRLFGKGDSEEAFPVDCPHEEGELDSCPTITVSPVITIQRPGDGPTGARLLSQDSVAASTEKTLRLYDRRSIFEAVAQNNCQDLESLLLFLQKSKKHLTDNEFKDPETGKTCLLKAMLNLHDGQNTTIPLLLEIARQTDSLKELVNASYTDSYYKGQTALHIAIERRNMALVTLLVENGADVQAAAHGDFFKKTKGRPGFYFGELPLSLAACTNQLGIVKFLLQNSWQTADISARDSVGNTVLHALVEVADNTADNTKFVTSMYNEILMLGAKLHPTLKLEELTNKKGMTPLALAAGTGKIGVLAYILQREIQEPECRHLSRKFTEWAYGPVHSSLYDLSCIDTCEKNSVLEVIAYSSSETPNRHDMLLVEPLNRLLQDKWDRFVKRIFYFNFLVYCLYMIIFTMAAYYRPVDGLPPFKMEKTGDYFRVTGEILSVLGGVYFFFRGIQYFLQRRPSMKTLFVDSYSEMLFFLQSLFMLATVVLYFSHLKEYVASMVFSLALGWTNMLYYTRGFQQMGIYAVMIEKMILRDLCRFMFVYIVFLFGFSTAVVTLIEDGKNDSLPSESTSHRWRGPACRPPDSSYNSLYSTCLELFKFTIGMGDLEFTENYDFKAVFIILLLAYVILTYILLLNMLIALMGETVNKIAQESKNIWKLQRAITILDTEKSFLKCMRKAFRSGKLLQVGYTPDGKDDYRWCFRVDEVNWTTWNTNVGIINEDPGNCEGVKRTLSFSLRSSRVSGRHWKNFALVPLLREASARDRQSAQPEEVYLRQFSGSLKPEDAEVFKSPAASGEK
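Fluo-8 calcium influx in TRPV1-expressing cells, kinetic read (ex 480/em 520 nm). Compound added and read 3 min for agonist activity, followed by capsaicin at EC20 final and 2 min further read for enhancement.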
PINK1 modulator: A Quantitative High throughput Screen to Identify Chemical Modulators of PINK1 Expression; PINK1 immunofluorescence, high-content cytometry, 24 h; Potency, µM (titrated, usually from 76.6 µM), for the others: top-dose activation (PINK1 increase), hits mostly activators; hit rate 0.2% among 410,000; active = well fitted activation curve with a large enough effect; inconclusive = small, poorly fitted or top-dose-only effect; inactive = flat fitted curve, though single readings scatter; cell line not stated here;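 also: potency is read from the fitted curve at half-maximal effect; % of control where 0% means no effect; nearly all actives have a fitted effect of over 65% in size; a mitochondrial uncoupler was the plate control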
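A stable cell line was treated with compounds at 5 concentrations for 24 hours, with CCCP as control. PINK1 levels and mitochondrial localization were measured by immunofluorescence with mitochondrial, cell and nuclear markers after fixation, read by laser-scanning cytometry.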
ClpP mod: qHTS Assay for Activators of ClpP | ATP-dependent Clp protease proteolytic subunit (Bacillus subtilis (strain 168)), P80244 | purified B. subtilis ClpP, FRET peptide cleavage, 20 min | Potency, µM (top dose mostly 57.5 µM), for the others: at the highest dose activity change, negative = active | hit rate 1.9% among 340,000 | AID 651965, 2013; active = well fitted falling curve with a large enough effect; inconclusive = small, poorly fitted or top-dose-only effect; inactive = no such curve, though single readings can be large or run the other way; also: potency is read from the fitted curve at half-maximal effect; the source files actives as falling curves though it sought activators and does not explain the sign; nearly all actives have a fitted effect of over 65% in size; many hits overshoot -100%
Target sequence (P80244 whole entry, looked up): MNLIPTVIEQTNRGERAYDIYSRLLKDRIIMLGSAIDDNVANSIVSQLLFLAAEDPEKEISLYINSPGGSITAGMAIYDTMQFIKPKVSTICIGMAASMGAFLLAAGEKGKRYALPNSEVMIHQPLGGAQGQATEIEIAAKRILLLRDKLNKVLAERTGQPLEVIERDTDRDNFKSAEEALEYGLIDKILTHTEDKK
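FRET quenching reversal measured ClpP activation: 10 microg/mL B. subtilis ClpP at pH 8 with the FRET-FV decapeptide, read at 430 nm after 320 nm excitation. The 20-min minus 0-min signal was scaled between DMSO/no-enzyme wells and ADEP (5.8 microM final).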
Starred values were filed as active, the others as inactive; ? = inconclusive; nt = no result given; [ ] = another dose, or the depositor's remark.

SMILES	TRPML1 ag	Sfp PPTase inh	Menin MLL FP FL	TRPML1 blocker	TRPV1 potentiator	PINK1 modulator	ClpP mod
CS(=O)(=O)N(CC(=O)Nc1ccccc1-c1ccccc1)c1ccccc1	0.0	7%	-3.4	-10	1	-1.3%	nt
COC(=O)c1ccc(C)c(NC(=O)CN(c2ccccc2)S(=O)(=O)N(C)C)c1	0.7	14%	1.2	-17	17	-1.3%	nt
Cc1nc2cncnc2n(-c2ccccc2)c1=O	nt	-1%	13	nt	nt	-0.4%	nt
O=C(Nc1ccccc1O)N1c2ccccc2Sc2ccccc21	1.5	-2%	-3.0	17	2	0.1%	-3.1%
CC(=O)N1CCc2cc(S(=O)(=O)CCC(=O)N(C)Cc3ccco3)ccc21	-1.0	16%	-0.8	7	27	-0.9%	0.7%
COc1ccc(NC(=O)C2CCC(CNS(=O)(=O)c3ccc(Br)s3)CC2)cc1OC (stereo not drawn)	1.1	nt	nt	27	nt	7.8%	4.3%
COc1cccc(Nc2ncc3ncc(=O)n(C4CC4)c3n2)c1	nt	-9%	6.5	nt	nt	1.2%	nt
CCO[C@H]1OC(C(=O)N2CCN(C)CC2)=C[C@@H](C)[C@@H]1CCCO	-1.3	16%	-6.1	4	2	0.6%	0.9%
COc1ccccc1N1CCN(S(=O)(=O)c2ccc(-c3ccno3)cc2OC)CC1	2.1	nt	nt	-11	nt	1.6%	0.0%
COc1ccc(OCC(O)COc2ccc(OC)cc2)cc1	2.0	9%	-0.3	4	27	-0.7%	-0.2%
CN(C(=O)CCN1C(=O)C(C)(C)Nc2ccccc21)c1ccccc1	0.0	15%	2.2	0	-17	-0.8%	1.5%
CC1(C)Cc2c(sc3nc4n(-c5ccccc5)c(=O)c(CCC(=O)O)nn4c(=O)c23)CO1	0.9	5%	-2.7	1	5	-0.1%	nt
CCOc1ccccc1C1C(C(=O)Nc2ccccc2)=C(C)Nc2nc(-c3ccccc3)nn21 (stereo not drawn)	-0.5	nt	nt	-24	nt	1.4%	-7.4%
Cc1ccccc1NC(=O)c1ccccc1N(C)S(=O)(=O)c1ccccc1	2.1	nt	nt	52	nt	1.2%	nt
CCOC(=O)CC1Sc2ccccc2NC1=S (stereo not drawn)	0.4	40µM*	?	6	-30	-1.0%	nt
N#Cc1c(Nc2ccccc2)sc(C(=O)C2CC2)c1N	1.3	-12%	3.6	-15	16	0.7%	-3.8%
O=C(c1ccco1)N1CCC[C@@]2(CCN(Cc3ccccc3)C2)C1	nt	7%	1.8	nt	nt	-0.4%	nt
COc1ccc(Nc2nc(N)c(C(=O)c3ccc(F)cc3)s2)cc1	4.0	?	0.8	2	7	2.2%	-0.7%
NC(CCc1ccccc1)c1csc(NC(=O)Nc2cccc(C(F)(F)F)c2)n1 (stereo not drawn)	0.4	nt	nt	nt	nt	-1.4%	-1.6%
O=C(C1CC1)N1CCc2cc(Br)cc(S(=O)(=O)N3CCOCC3)c21	1.6	13%	-0.1	14	nt	-0.6%	-0.9%
COc1ccc(OC)c(S(=O)(=O)n2ccnc2C(C)C)c1	0.4	15%	-3.3	2	-11	0.1%	?
CCOc1ccc(C(=O)CCC(=O)N2CCN(c3ccccc3O)CC2)cc1	2.4	nt	nt	3	nt	4.8%	-1.8%
O=C(COC(=O)c1ccccc1[N+](=O)[O-])NC(=O)c1ccccc1	0.7	nt	nt	8	-3	2.5%	1.5%
CC1CN(C(=O)COC(=O)c2cc3ccccc3cc2O)CC(C)O1 (stereo not drawn)	0.5	nt	nt	6	nt	1.3%	-0.1%
O=C(Cc1ccccc1[N+](=O)[O-])c1ccc2c(c1)OCO2	1.0	nt	nt	8	nt	0.1%	-2.3%
CCN1C(=O)c2ccccc2Sc2ccc(NC(=O)Nc3cc(C)cc(C)c3)cc21	-0.1	nt	nt	15	nt	?	-1.7%
COc1cccc(CN(C)C(=O)c2cc(S(=O)(=O)N3CCCCCC3)ccc2OC)c1	-0.5	nt	nt	-2	-6	-0.5%	-3.6%
CCOc1ccc(C(=O)NCC(=O)OCC(=O)N2C(C)CCCC2C)cc1 (stereo not drawn)	-0.3	7%	2.7	-15	11	0.8%	-0.4%
CCCOc1c(Cl)cc(C(=O)NC)cc1OC	0.7	16%	-2.0	30	-2	0.0%	-5.9%
COc1cc(C(=O)Cc2nc3ccccc3n2C)cc(OC)c1OC	0.2	17%	1.1	7	1	3.9%	nt
CCCCNC(=S)N(C)/N=C/c1ccc2c(c1)OCO2	2.8	-15%	0.6	74	-21	7.6%	-7.2%
CCN(CC)c1ccc(NC(=O)CCc2nc3cccnc3n2Cc2cccs2)c(C)c1	1.5	nt	nt	-17	nt	-1.7%	-4.0%
Cc1cc(OC(=O)c2ccc(C(C)(C)C)cc2)c([N+](=O)[O-])c(=O)[nH]1	-0.8	7%	nt	-17	8	2.0%	2.4%
CCCCc1nnc(NC(=O)C(C)Sc2nc(O)c(Cc3ccccc3)c(=O)[nH]2)s1 (stereo not drawn)	-0.6	10%	-1.3	23	?	-0.5%	nt
O=C(CCc1ccccc1)NCc1ccc(F)cc1	0.8	22%	3.9	11	-15	0.0%	nt
CC(C)(O)C1=NOC(c2ccccc2)C1 (stereo not drawn)	0.6	-2%	4.7	-15	5	-1.8%	-4.9%
CC(C)NC(=O)N(C)C[C@H]1Oc2ccc(NS(=O)(=O)c3ccccc3)cc2C(=O)N([C@H](C)CO)C[C@@H]1C	0.0	nt	nt	-19	nt	0.0%	0.2%
COc1ccc(C2CC(=O)c3cc(-c4nc(-c5ccc(Cl)cc5)c(C)s4)c(=O)[nH]c3C2)cc1 (stereo not drawn)	-0.3	nt	nt	1	nt	6.6%	-6.7%
Cc1ccc(NC(=O)CC2SCCNC2=O)cc1[N+](=O)[O-] (stereo not drawn)	-0.8	11%	5.0	-13	-3	0.9%	-2.6%
COC(=O)C1=C(C)NC(=O)CC1c1ccccc1F (stereo not drawn)	0.1	19%	-1.5	33	6	1.0%[38.3 µM]	-0.5%
CCOc1ccc(N(C)C(=O)CCc2nnc3ccc(N4CCCC4)nn23)cc1	-1.0	15%	nt	5	-5	-0.5%	0.9%
COc1ccc(-c2[nH]ncc2C2N=C(N)Nc3nc4ccccc4n32)cc1 (stereo not drawn)	0.1	10%	0.7	-7	17	2.5%	-1.7%
CCOC(=O)c1ccc(NC(=S)N(CCN(C)C)Cc2cccs2)cc1	1.5	11%	0.5	49	-13	-0.2%	5.1%
Nc1ccccc1SC1CC(=O)N(c2ccc3c(c2)OCO3)C1=O (stereo not drawn)	1.8	7%	-0.2	-1	?	7.6%	nt
COC(=O)c1cccc(NC2CC(=O)N(c3ccc(OC)c(OC)c3)C2=O)c1 (stereo not drawn)	-0.2	12%	-0.5	5	-6	1.6%	?
COCc1cc(C)nc2sc(C(=O)Nc3ccc(OC(F)(F)F)cc3)c(N)c12	-0.3	nt	nt	-4	nt	9.7%	-19%
COc1cccc(-c2cncnc2NC2CCNCC2)c1	nt	17%	-1.6	nt	nt	-0.4%	nt
O=C(COc1ccc(Cl)cc1)N1CCN(C(=O)c2ccccc2F)CC1	1.0	17%	nt	36	-7	0.5%	nt
S=C(N/N=C/c1ccc2c(c1)OCO2)NC1CC2CCC1C2 (stereo not drawn)	1.2	10%	0.7	62	5	4.2%	-0.3%
COc1ccc2nc(C)cc(SCC(=O)NNC(=O)COc3ccc(C)cc3)c2c1	-0.2	2%	-3.2	-8	3	nt	0.6%
O=C(Nc1ccc(Cl)c(S(=O)(=O)N2CCOCC2)c1)c1ccncc1	0.8	nt	nt	-1	nt	-0.6%	nt
Cc1ccc(CNC(=O)C2CCN(S(=O)(=O)c3ccc4[nH]c(=O)ccc4c3)CC2)cc1	1.7	nt	nt	-19	nt	-4.8%	-13%
COC(=O)c1cccc(NC(=S)N2CCN(c3ccccc3F)CC2)c1	-1.1	17%	3.6	-16	-9	-0.3%	nt
O=C1CCC/C1=C\Nc1ccc(Cl)c([N+](=O)[O-])c1	-0.8	-3%	-1.8	-3	-20	1.1%	-1.1%
Cc1ccccc1/C=N/NC(=O)CSc1nc2ccccc2o1	1.3	19%	5.2	-21	3	14%	0.8%
Cc1noc(C)c1NC(=O)N(C)C[C@H]1Oc2ccc(NS(=O)(=O)c3ccccc3)cc2C(=O)N([C@H](C)CO)C[C@@H]1C	0.3	nt	nt	-9	nt	0.9%	-0.5%
CC1(C2CC(=O)c3c(O)ccc(O)c3C2)OCCO1 (stereo not drawn)	-0.5	nt	nt	-6	nt	-1.0%	-4.0%
CC(NC(=O)[C@H](C)NC(=O)N1CCn2c1nc1ccccc12)c1ccccc1 (stereo partly drawn)	-1.2	8%	-4.6	-6	1	0.5%	1.1%
Cc1ccn(CCC(=O)N2CCCC(CCC(=O)N3CCN(c4ccccn4)CC3)C2)n1 (stereo not drawn)	-0.9	12%	-0.6	2	-9	7.9%	nt
COc1cccc(C(C(=O)NC2CCCC2)N(C(=O)c2csnn2)C2CC2)c1 (stereo not drawn)	0.0	0%	0.2	-6	7	-0.3%	nt

Given with two lines to a compound: 3 of the compounds above
Fields: TRPML1 ag | Sfp PPTase inh | Menin MLL FP FL | TRPML1 blocker | TRPV1 potentiator | PINK1 modulator | ClpP mod
Cc1noc(C)c1NC(=O)N(C)C[C@H]1Oc2ccc(NS(=O)(=O)c3ccccc3)cc2C(=O)N([C@H](C)CO)C[C@@H]1C
    0.3 | nt | nt | -9 | nt | 0.9% | -0.5%
CC1(C2CC(=O)c3c(O)ccc(O)c3C2)OCCO1 (stereo not drawn)
    -0.5 | nt | nt | -6 | nt | -1.0% | -4.0%
CC(NC(=O)[C@H](C)NC(=O)N1CCn2c1nc1ccccc12)c1ccccc1 (stereo partly drawn)
    -1.2 | 8% | -4.6 | -6 | 1 | 0.5% | 1.1%

Screening data as filed in PubChem BioAssay.
